# Hsp90 inh – displaces geldanamycin probe from tumor Hsp90; NCI-N417 lysate Hsp90, Cy3B-geldanamycin FP displacement; 0.35% of 64,000 active; inhibition, % at 30 µM; P07900;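 active = inhibition above 50%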;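 note: 0% = tracer plus lysate wells and 100% = tracer alone without lysate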
# MKP-1 inh – inhibitors of human MKP-1 phosphatase | P28562 | recombinant MKP-1, OMFP hydrolysis fluorescence | inhibition, %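 (compounds tested at a single concentration somewhere between 10 and 100 µM)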 | 0.15% of 65,000 active | AID 374;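 active = inhibition above about 50%, limit read from the data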;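 note: 0% = DMSO max control wells and 100% = wells with enzyme stopped by NaOH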
# FXIa mix inh – blocks human factor XIa in pooled compound mixtures; AID 680; 0.19% of 62,000 active; inhibition, % at 5 µM; purified FXIa, fluorogenic substrate;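 note: each value is inhibition by a whole ten-compound pool holding the compound; 0% = enzyme with no mixture and 100% = wells lacking enzyme; strong numbers were not always called active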
# FXIIa mix inh – factor XIIa (human) inhibition, mixture screen. purified FXIIa, fluorogenic substrate, pooled mixtures. inhibition, % at 5 µM. P00748. 0.2% of 62,000 active;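 note: 0% = enzyme without compound and 100% = no enzyme blank; some results filed as inactive read as strong as hits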
# CatL inh – inhibitors of human cathepsin L; 0.17% of 58,000 active; purified cathepsin L, fluorogenic substrate, fluorescence; AID 460; inhibition, %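 (tested at 10 µM)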; in the data active = inhibition above about 45%;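 note: 0% = enzyme with no compound and 100% = no enzyme blank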
# Numbers without * were called inactive; · = not tested or not shown; & = joins results of further samples. Cut-off read from the data, not from the text of the source, unless noted: active = inhibition above about 20% (passing the limit was not always enough); inactive = the rest. This is a subset, so the mix of outcomes need not match the whole.
nr | SMILES | Hsp90 inh | MKP-1 inh | FXIa mix inh | FXIIa mix inh | CatL inh
1 | COc1ccc2c(c1)c(CC(=O)O)c(C)n2C(=O)c1ccc(Cl)cc1 | -6&-1 | 2 | 3 | 16 | 1
2 | Cc1cc(NS(=O)(=O)c2ccc(N)cc2)no1 | -1 | -8 | 19 | 8 | -2
3 | Nc1ccc(S(=O)(=O)c2ccc(N)cc2)cc1 | -3 | -13 | 7 | 8 | 8
4 | COc1ccc2c(c1OC)C(=O)OC2C1c2c(cc3c(c2OC)OCO3)CCN1C (stereo not drawn) | -8&-1 | -19&8 | 4&5 | 3&6 | 9&5
5 | NS(=O)(=O)c1cc2c(cc1C(F)(F)F)NCNS2(=O)=O | -5 | -17 | 11 | 1 | 14
6 | CN(C)CCC=C1c2ccccc2CCc2ccccc21 | -8&-1 | -28 | 6 | 4 | 13
7 | CN1CCC(=C2c3ccccc3C=Cc3ccccc32)CC1 | 0&3 | -17 | -1 | 2 | 8
8 | CC1CCc2cc(F)cc3c(=O)c(C(=O)O)cn1c23 (stereo not drawn) | 1 | -4 | -2 | -5 | -7
9 | CCOC(=O)N1CCC(=C2c3ccc(Cl)cc3CCc3cccnc32)CC1 | -6&3 | 6 | 4 | 12 | 22
10 | CN(C)CCOC(c1ccccc1)c1ccccc1 | -6&-4 | -21 | 9 | 4 | -10
11 | O=C(O)CC(O)C(=O)O (stereo not drawn) | 0 | 3 | -3 | 2 | ·
12 | N[C@H](CO)C(=O)O | 3 | · | · | · | ·
13 | Cc1nc2c(C(=O)NCCC3=CCCCC3)c[nH]n2c(=O)c1Cl | 2 | 54* | -2 | -19 | ·
14 | COc1c2occc2cc2ccc(=O)oc12 | -3 | 18 | 1 | 9 | 1
15 | C[C@@H]1C[C@H]2[C@@H]3CCC4=CC(=O)C=C[C@]4(C)[C@@]3(F)[C@@H](O)C[C@]2(C)[C@@]1(O)C(=O)COP(=O)(O)O | -4 | -3 | 1 | -5 | 0
16 | CCCn1c(=O)[nH]c(=O)c2[nH]cnc21 | -5&-2 | -5 | 5 | 12 | -3

# Among those listed so far, these contain nitrogen in an aromatic ring:
nr | SMILES | Hsp90 inh | MKP-1 inh | FXIa mix inh | FXIIa mix inh | CatL inh
1 | COc1ccc2c(c1)c(CC(=O)O)c(C)n2C(=O)c1ccc(Cl)cc1 | -6&-1 | 2 | 3 | 16 | 1
2 | Cc1cc(NS(=O)(=O)c2ccc(N)cc2)no1 | -1 | -8 | 19 | 8 | -2
8 | CC1CCc2cc(F)cc3c(=O)c(C(=O)O)cn1c23 (stereo not drawn) | 1 | -4 | -2 | -5 | -7
9 | CCOC(=O)N1CCC(=C2c3ccc(Cl)cc3CCc3cccnc32)CC1 | -6&3 | 6 | 4 | 12 | 22
13 | Cc1nc2c(C(=O)NCCC3=CCCCC3)c[nH]n2c(=O)c1Cl | 2 | 54* | -2 | -19 | ·
16 | CCCn1c(=O)[nH]c(=O)c2[nH]cnc21 | -5&-2 | -5 | 5 | 12 | -3

# An excerpt from above in order of their number in CatL inh, high to low.
cpd | compound | CatL inh
14 | COc1c2occc2cc2ccc(=O)oc12 | 1
15 | C[C@@H]1C[C@H]2[C@@H]3CCC4=CC(=O)C=C[C@]4(C)[C@@]3(F)[C@@H](O)C[C@]2(C)[C@@]1(O)C(=O)COP(=O)(O)O | 0
16 | CCCn1c(=O)[nH]c(=O)c2[nH]cnc21 | -3
